CBX7 AlphaScr: blocks human CBX7 binding to H3K27me3 peptide | O95931 | AlphaScreen His6-CBX7 / biotin-H3K27me3 peptide binding; hits give low values | normalised signal (fraction of DMSO) (test concentration not listed) | 66,000 tested, 1.1% active | AID 1224903; in the data active = normalised signal below about 0.5;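 also: 100 nL library stock added to about 20 µL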
Target sequence (O95931 whole entry, looked up): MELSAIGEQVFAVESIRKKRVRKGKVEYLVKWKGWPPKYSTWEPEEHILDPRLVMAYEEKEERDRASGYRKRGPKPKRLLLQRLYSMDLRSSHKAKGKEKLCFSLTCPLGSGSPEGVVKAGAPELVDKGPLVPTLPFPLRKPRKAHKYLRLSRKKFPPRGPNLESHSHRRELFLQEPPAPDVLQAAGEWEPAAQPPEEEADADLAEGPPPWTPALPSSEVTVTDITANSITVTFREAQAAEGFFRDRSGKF
CBX7 AlphaScr z-score: second read-out of CBX7 AlphaScr, no call of its own (marks repeat the call); z-score; measured here: z-score of CBX7 signal; some inactives read as strong as hits; reference of the scale not given here;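 same signal on another scale; lower means less binding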
* hit, by the source's call; & = joins results of further samples. An excerpt; the hit share may differ from the screen's.

Order of values – CBX7 AlphaScr, CBX7 AlphaScr z-score
COc1cc2c(C(=O)N3CCN(c4ccccc4F)CC3)cn(CC(C)C)c(=O)c2cc1OC
  0.94, -1.6
CCCCOc1ccc(C(C)NC(=O)CSCc2nc(-c3ccc(SC)cc3)oc2C)cc1 (configuration not stated)
  0.84, -2.6
Cc1ccc(C2=NCCNC(C(F)(F)F)=C2)cc1
  1.1, 1.2
CCCN1CCN(C(=O)c2n[nH]c(=O)c3ccccc23)CC1
  0.95, -0.16
CCOc1ccccc1C(=O)Nc1c2c(nn1-c1cccc(C)c1C)CSC2
  0.57, -7.4
COc1ccc(CNC(=O)c2cc(-c3ccc(Br)s3)nc3ccccc23)c(OC)c1
  1.1, 3.9
Cc1c(C(=O)Nc2ccccc2C(N)=O)sc2nc(-c3ccc(F)cc3)cn12
  1, 0.057
CCc1cccc(NC(=O)CN(C)S(=O)(=O)c2ccc3nc(C)sc3c2)c1
  1.2, 1.3
COc1ccc(-c2cn(-c3ccccc3Cl)c(SCC(=O)Nc3ccccc3)n2)cc1OC
  0.88, -1.2
CCc1ccc(NC(=O)CSc2nccn2-c2ccc(OC)cc2)cc1
  0.53, -0.62
COc1ccc(N2CCN(C(=O)Cn3ncc4c3-c3cc(C)ccc3OC4)CC2)cc1
  1, 0.1
COc1ccc(-n2ncc3c(N4CC(C)OC(C)C4)ncnc32)cc1 (configuration not stated)
  1.1, 0.051
OC(COc1ccc(Br)cc1)CN1CCN(c2ccccc2)CC1 (configuration not stated)
  1.3, 0.6
CCN(CCNC(=O)Cn1nc(-c2ccc(C)cc2)ccc1=O)c1ccccc1
  0.91, -4.3
CCC(C)NC(=O)c1ccc2c(c1)N(Cc1ccccc1)CCS2 (configuration not stated)
  0.73, -0.36
COc1ccc(CNCCC(c2ccc3c(c2)OCO3)c2ccccc2OC)cc1 (configuration not stated)
  0.67, -0.93
COc1cccc(NC(=O)C2CCN(S(=O)(=O)c3cccs3)CC2)c1
  0.98, -0.48
O=C(Nc1nc(-c2ccc(-c3ccccc3)cc2)cs1)c1ccncc1
  1.1, 0.64
Cc1cc(C)nc(NS(=O)(=O)c2ccc(NC(=O)CCc3ccccc3)cc2)n1
  1, 0.64
CCCCNS(=O)(=O)c1ccc2nc(-c3cccs3)cc(C(=O)NCc3ccc(C)cc3)c2c1
  1, 0.32
Fc1ccc(-c2ncnn2-c2ccc(Cl)cc2)cc1
  0.96, -0.48
Cc1ccc(-c2nnc(Nc3ccc(O)cc3)c3ccccc23)cc1S(=O)(=O)NCC1CCCO1 (configuration not stated)
  0.79, -0.23
CC(C)Cc1ccc(-c2csc(Nc3ccc(F)cc3)n2)cc1
  0.8&0.73, -2.8&-4.7
COc1ccccc1CNc1nc2ccccc2c2nc(-c3ccccc3)nn12
  1, 0.41
Cc1ccc(NC(=O)c2nc[nH]c2C(=O)Nc2ccc(C)cc2)cc1
  0.72, -5.5
CC(CNC(=O)c1ccc2nc(N3CCOCC3)sc2c1)c1ccccc1 (configuration not stated)
  1, 0.071
Cc1nn(C)cc1CNC(=O)c1cc(-c2ccc3c(c2)OCO3)nc2ccccc12
  1.1, 2
Cc1nc(Sc2ccc3c(c2)OCCO3)c2c3c(sc2n1)CCCC3
  1, 0.0078
COc1ccc(NC(=O)c2cc(C)on2)cc1OC
  1, 1.4
CCC(=O)N1CCc2cc(S(=O)(=O)NC(CC(C)C)C(=O)Nc3cc(C)ccc3OC)ccc21 (configuration not stated)
  1, 0.74

Reprinted from the results shown (four entries):
Order of values – CBX7 AlphaScr, CBX7 AlphaScr z-score
Cc1nn(C)cc1CNC(=O)c1cc(-c2ccc3c(c2)OCO3)nc2ccccc12
  1.1, 2
Cc1nc(Sc2ccc3c(c2)OCCO3)c2c3c(sc2n1)CCCC3
  1, 0.0078
COc1ccc(NC(=O)c2cc(C)on2)cc1OC
  1, 1.4
CCC(=O)N1CCc2cc(S(=O)(=O)NC(CC(C)C)C(=O)Nc3cc(C)ccc3OC)ccc21 (configuration not stated)
  1, 0.74

Continued.
Order of values – CBX7 AlphaScr, CBX7 AlphaScr z-score
Cc1ccccc1Nc1nc2nonc2nc1Nc1cccc(C)c1C
  0.98, -0.3
CC1CCN(c2nc3ccc(C(=O)NCC4CCCO4)cc3s2)CC1 (configuration not stated)
  0.96, -0.82
CCOc1ccc(Nc2nc(-c3ccncc3)cs2)cc1
  0.99, -0.078
Cc1nc2ccc(S(=O)(=O)N(C)CC(=O)Nc3ccccc3F)cc2s1
  1.4, 2.2
CC(=O)N(c1ccccc1)c1nc(-c2noc(C)n2)ns1
  0.99, -0.27
CCOc1ccc(CCNC(=O)C2CC(=O)N(CCc3ccc(OC)c(OC)c3)C2)cc1OCC (configuration not stated)
  0.89, -0.23
COc1ccccc1NCc1nc2ccccc2n1CCOc1ccccc1
  0.9, -3.7
COc1ccc(Br)cc1C1CC(=O)Nc2cc3c(cc21)OCO3 (configuration not stated)
  0.99, -0.13
O=C(CN1CCN(Cc2ccc(Cl)cc2)C1=O)NC1CCCCCC1
  0.98, -0.43
CCc1nnc(NC(=O)c2ccc(C(C)(C)C)cc2)s1
  0.99, -0.015
CC(C)c1ccc(NC(=O)c2ccc3c(=O)n4c(nc3c2)CCCCC4)cc1
  0.94, -0.13
CCCCNC(=O)c1cnc(N2CCN(c3ccccc3OC)CC2)c2ccccc12
  0.99, -0.15
CCOc1ccc(Nc2oc(COc3ccccc3Cl)nc2C#N)cc1
  0.95, -0.31
COc1ccc(C2=NOC(C(=O)NC(C)c3ccccc3)C2)cc1 (configuration not stated)
  1.1, 1.2
CCCc1cc(C(=O)Nc2ccc(OC)cc2)no1
  1.1, 0.1
Cc1ccc(C2C(Oc3ccc(Cl)cc3C)C(=O)N2c2ccc(F)cc2)cc1 (configuration not stated)
  1.1, 0.74
CC1CCN(CCCNS(=O)(=O)c2ccc3c(c2)CCN3C(=O)C2CC2)CC1
  0.99, -0.42
Cc1ccc(C(=O)Nc2ccc(S(=O)(=O)N3CCCCC3c3cccnc3)cc2)cc1 (configuration not stated)
  0.91, -1.4
CC(O)c1ccc(NC(=O)c2cnn3c2NC(c2ccco2)CC3C(F)(F)F)cc1 (configuration not stated)
  1.1, 0.62
O=C(NCCc1ccc(Cl)cc1)c1ccc2c(c1)N(Cc1ccc(F)cc1)CCS2
  0.94, -0.077
Cc1ccc(Cn2nnc3c(=O)n(Cc4cccc(F)c4)cnc32)cc1
  1.1, 1.2
COc1cc(C(=O)Nc2ccc(-c3nc4ccccc4o3)c(O)c2)cc(OC)c1OC
  0.97, -0.56
Cc1ccc2c(c1C)NC(=O)CC2c1ccc(Cl)cc1Cl (configuration not stated)
  1, 0.042
CCOC(=O)c1cnc2ccc(OC)cc2c1Nc1ccc2c(c1)OCCO2
  0.47*, -2.3*
O=C(c1ccc(CNc2c(N3CCCCC3)c(=O)c2=O)cc1)N1CCc2ccccc2C1
  1.4, 0.88
CCOc1ccc(Nc2cc(C(=O)NCCCN3CCCC3=O)c3ccccc3n2)cc1
  0.9, -1.6
CCCCNC(=O)c1oc2ccc(S(=O)(=O)N3CCCC(C)C3)cc2c1C (configuration not stated)
  0.91, -1.7
CN(CC(=O)NC1CCCCCC1)S(=O)(=O)c1cnc[nH]1
  0.98, -0.36
COc1ccc(Cn2cc(S(=O)(=O)c3ccccc3)c(=O)c3cc(F)ccc32)cc1
  1.1, 1.7
COc1cccc(CNc2ccc3c(c2)nc(C)n3Cc2ccccc2)c1OC
  0.31*, -4.3*

Gathered by group: the entries above with an aryl thioether with sulfur outside any ring.
Order of values – CBX7 AlphaScr, CBX7 AlphaScr z-score
CCCCOc1ccc(C(C)NC(=O)CSCc2nc(-c3ccc(SC)cc3)oc2C)cc1 (configuration not stated)
  0.84, -2.6
COc1ccc(-c2cn(-c3ccccc3Cl)c(SCC(=O)Nc3ccccc3)n2)cc1OC
  0.88, -1.2
CCc1ccc(NC(=O)CSc2nccn2-c2ccc(OC)cc2)cc1
  0.53, -0.62
Cc1nc(Sc2ccc3c(c2)OCCO3)c2c3c(sc2n1)CCCC3
  1, 0.0078

(further entries)
Order of values – CBX7 AlphaScr, CBX7 AlphaScr z-score
CCCNC(=O)CSCc1nc(-c2ccc(Cl)cc2)oc1C
  1.1, 0.87
COc1ccc(-c2noc(CCC(=O)N(C)c3cc(C)ccc3OC)n2)cc1
  0.99, -0.26
Cn1c(COc2ccc(Br)cc2)nc2ccccc21
  1.1, 1.2
N#Cc1nc(-c2ccccc2)oc1N1CCCCC1
  0.88, -1.5
O=C(Nc1nnc(-c2ccc(Br)cc2)s1)c1cccs1
  1, 0.28
Cc1cc(N2CCN(C)CC2)nc2ccc(NC(=O)CCC(=O)N3CCC(C)CC3)cc12
  0.98, -0.28
COc1cc(OC)cc(-c2cc3nc(C)c(CCC(=O)Nc4ccc(OC)c(OC)c4)c(C)n3n2)c1
  0.98, -0.31
CCc1ccc(CN2C(=O)c3ccccc3C2C(=O)NC2CCCCCC2)cc1 (configuration not stated)
  0.86, -0.5
Cc1ccc(NC(=O)Cn2cc(S(=O)(=O)c3ccc(C)cc3)c(=O)c3cc(C)ccc32)cc1
  0.83, -2.4
CN(C(=O)Cn1nc(Cc2cccnc2)c2ccccc2c1=O)c1cccc(Cl)c1
  1.1, 3.4
COc1cccc(-c2cc(C(=O)NCc3ccc(F)cc3)no2)c1
  1.2, 3.5
CC(=O)Nc1cc(-c2cccc(Br)c2)nn1-c1ccccc1
  1, 0.95
CCOc1ccccc1NC(=O)Cn1ccc2ccccc2c1=O
  1.2, 1.8
COc1cc2c(=O)c(S(=O)(=O)c3ccccc3)cn(Cc3ccc(F)cc3)c2cc1OC
  0.89, -2
CCn1cc2c(c1-c1ccc(OC)cc1)c(=O)n(C)c(=O)n2C
  0.92, -0.87
COCCNC(=O)c1cc2c(-c3cccc(OC)c3)nn(C)c2s1
  0.98, -0.2
O=C(Nc1nnc(-c2cccs2)o1)c1ccc(S(=O)(=O)N2CCCc3ccccc32)cc1
  0.93, -2.1
Cc1cc(C)c(C)c(OCc2nc(-c3ccccc3)no2)c1
  1.8, 1.1
Cc1nc2cc(NCc3ccc(C(C)C)cc3)ccc2n1C
  0.7, -1.2
COCCCNC(=O)c1c[nH]c2ccc(S(=O)(=O)N3CCC(C)CC3)cc2c1=O
  1.2, 2.9
O=S(=O)(c1cnc[nH]1)N1CCN(C(c2ccccc2)c2ccc(Cl)cc2)CC1 (configuration not stated)
  0.9, -2.7
Cc1cc(C)nc(Nc2n[nH]c(-c3ccccc3Br)n2)n1
  1, 0.17
CCOC(=O)N1CCC(NC(=O)CSCc2cnn(-c3ccccc3)c2-n2cccc2)CC1
  1, -0.21
O=C(Nc1cccc(NC(=O)c2ccc(Cl)cc2Cl)c1)c1cc2ccccc2o1
  1.2, 1.2
COc1ccc(CN2CCN(Cc3cc(OC)c(OC)cc3OC)CC2)cc1Br
  0.98, -0.45
CCOc1ccc(OCC)c(NS(=O)(=O)c2ccc3c(c2)CCN3C(=O)C2CC2)c1
  0.99, -0.19
Cc1cc(C)c(NC(=O)CCc2c(C)nc3cc(-c4cccc(F)c4)nn3c2C)c(C)c1
  0.95, -0.76
CCC(C)Sc1nnc(Cc2cc(=O)[nH]c(=O)[nH]2)n1-c1ccc(Cl)cc1 (configuration not stated)
  1, 0.1
CCCc1ccc2c(N)c(C(N)=O)sc2n1
  0.96, -1.1
COC1Cc2ccccc2N(C(N)=O)c2ccccc21 (configuration not stated)
  0.98, -0.59

The list goes on:
Order of values – CBX7 AlphaScr, CBX7 AlphaScr z-score
COc1ccc(NC(=O)c2cnc3sccn3c2=O)cc1
  0.76, -2.8
CCOC(=O)CNC(=O)c1cc2c(s1)-c1ccccc1OC2
  1, 1.4
CC1CCCCC1NC(=O)C1c2cccn2CC(=O)N1Cc1ccc(Cl)cc1 (configuration not stated)
  1, -0.092
O=C(O)c1c2c(nc3ccc(S(=O)(=O)N4CCC(C(=O)N5CCCC5)CC4)cc13)CCCCC2
  1, 1.3
Cc1oc(-c2cccc(Cl)c2)nc1CN1CCC(C(=O)NCCN2CCCC2)CC1
  1, 0.12
Cc1ccc(NC(=O)C2(S(=O)(=O)c3ccc(C)cc3)CC2)cc1
  1.3, 3.4
CCc1ccc(OCC(=O)Nc2c(C(=O)c3ccc(F)cc3)oc3ccccc23)cc1
  1.3, 1.1
CCCN(CCC)CC(O)CN(c1ccc(OC)cc1)S(=O)(=O)c1ccc(C)cc1 (configuration not stated)
  1.2, 0.51
COc1ccc(-c2n[nH]c(C)c2-c2ccccc2)c(O)c1
  0.7, -1.4
COc1cccc(NC(=O)c2cnc(N3CCN(c4ncccn4)CC3)c3ccccc23)c1
  1, 0.22
Cc1ccc(-c2nnn(CC(=O)NCCc3ccccc3)n2)cc1
  1.1, 2
COc1cc2c(C(=O)Nc3ccc(F)cc3Cl)cn(C)c(=O)c2cc1OC
  1, 0.94
Cc1c(Cl)cccc1NC(=O)C1CCCN(C(=O)c2cnn(-c3ccccc3)c2-n2cccc2)C1 (configuration not stated)
  0.97, -1.7
O=C(NCCCc1ccccc1)C1CCN(c2nc3ccccc3[nH]2)CC1
  0.86, -1.6
CCc1ccc(-c2csc(Nc3ccc(C)cn3)n2)cc1
  0.84, -1.9
Cc1noc(C)c1S(=O)(=O)N1CCCC(C(=O)N2CCC(C)CC2)C1 (configuration not stated)
  1.1, 2
COc1ccc(CN2C(=O)c3ccccc3C2C(=O)NCCc2ccc(OC)c(OC)c2)c(OC)c1 (configuration not stated)
  0.99, -0.12
CCOc1c(OC)cccc1C1CC(=O)NC2=C1C(=O)CC(C)(C)C2 (configuration not stated)
  1.1, 0.79
CCN1CCCC1CNC(=O)c1cc(=O)[nH]c2ccc(S(=O)(=O)N3CCCCC3)cc12 (configuration not stated)
  1, 0.57

Screening data (PubChem)
